# Calb FLC = C. albicans growth modulation with fluconazole. C. albicans CaCi-2 (fluconazole-resistant clinical isolate) + fluconazole, Alamar Blue growth, 48 h. 300,000 compounds, 0.57% hits. growth inhibition, % (no concentration beside the values). AID 1979;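 active means most replicates above 75%; inconclusive means exactly half above 75%; inactive means most below 75%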;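 further: all wells also contain fluconazole at 8 µg/ml as a sub-toxic cotreatment; 0% = median of DMSO wells and 100% = median of geldanamycin control wells; wells of about 8 µL received 7.5 nL stock; the first replicate is given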
# T cruzi repl = blocks replication of Trypanosoma cruzi; T. cruzi beta-gal in NIH3T3, luminescence, 90 h; inhibition, % (test concentration not listed); 300,000 compounds, 1.4% hits;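 active means mean inhibition across valid replicates above about 55%, limit read from the data; inconclusive means mean below that limit but half or more replicates reach it; inactive means mean below it, under half of replicates reach it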;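 further: signal also drops with host cell toxicity which is not excluded here; 0% = plate median of DMSO wells and 100% = zero luminescence signal; higher percent means less beta-gal luminescence so fewer parasites; stock transfer was 50 nL into about 50 µL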
# rRNA inh HTS = selective bacterial rRNA inhibition in E. coli; E. coli WT GFP vs humanized-ribosome RFP mutants, fluorescence, 24 h; active compounds read low; DMSO median 0, no signal -100; GFP signal change (wild-type ribosome), % (no concentration beside the values); 350,000 compounds, 1.6% hits; AID 720706;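 active means significant combined selectivity score with lowered wild-type GFP, culture density cut under 30%, mutant RFP and density less affected; inactive means any of these conditions unmet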; further: one replicate is shown; some compounds called inactive have numbers as strong as hits
# AF4-AF9 inh = MLL-AF4/AF9 protein interaction inhibition; P42568; AlphaScreen, biotin-AF4 peptide binding to FLAG-AF9; inhibition, % at 10 µM; 350,000 compounds, 0.47% hits; AID 651704;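 active means every replicate reaching a set inhibition limit, whatever the replicate mean, cut at about 25% in these data; inconclusive means mean inhibition reaches that limit but some replicates miss it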;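 further: 0% = plate neutral control median and 100% = total signal loss; the record names both 10 and 1 µM as test concentration; the first replicate is given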
# Target sequence (P42568 whole entry, looked up): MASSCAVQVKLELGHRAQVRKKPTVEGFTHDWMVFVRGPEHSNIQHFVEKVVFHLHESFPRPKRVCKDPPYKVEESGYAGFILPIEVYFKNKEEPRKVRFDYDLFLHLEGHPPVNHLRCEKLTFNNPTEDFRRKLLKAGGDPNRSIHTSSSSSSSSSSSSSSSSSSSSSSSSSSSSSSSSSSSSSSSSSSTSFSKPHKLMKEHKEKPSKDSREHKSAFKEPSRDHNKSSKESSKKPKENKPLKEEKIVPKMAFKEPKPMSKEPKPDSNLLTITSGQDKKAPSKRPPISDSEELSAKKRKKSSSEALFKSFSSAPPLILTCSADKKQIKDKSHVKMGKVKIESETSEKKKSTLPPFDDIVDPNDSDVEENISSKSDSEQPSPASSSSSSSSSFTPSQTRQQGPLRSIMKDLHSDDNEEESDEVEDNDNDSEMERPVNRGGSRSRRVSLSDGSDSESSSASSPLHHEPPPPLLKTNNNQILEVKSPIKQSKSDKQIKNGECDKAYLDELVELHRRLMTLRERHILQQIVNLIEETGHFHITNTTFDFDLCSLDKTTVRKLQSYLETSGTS
# Beta cell apopt = blocks beta cell apoptosis; INS-1E cytokine-induced death, ATP luminescence, 48 h; percent of positive-control rescue, neutral wells zero; protection from apoptosis, % (test concentration not listed); 300,000 compounds, 0.8% hits;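 active means all replicates at 75% or more, or half of them and the mean; inconclusive means half reach 75% but not the mean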;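 further: 0% = cytokine-treated negative control wells and 100% = positive control rescue; higher means more ATP so stronger rescue from cytokine killing; wells of about 40 µL received 100 nL stock; the first replicate is given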
# RanGTP-Imp inh = disruptors of Ran-importin-beta complex formation – biochemical, FRET, CFP-Ran, YFP-importin-beta, homogeneous, primary screen | cell-free CFP-Ran/YFP-importin-beta FRET ratio | inhibition, % (concentration not given with the values) | 300,000 compounds, 1.1% hits;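 active means most replicates above 15%; inconclusive means exactly half above 15%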;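 further: 0% = DMSO wells and 100% = Ran loaded with GDP instead of GTP; wells of about 40 µL received 100 nL stock; the first replicate is given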
# ALR H2O2 inh = blocks human ALR sulfhydryl oxidase activity. P55789. AID 485317. purified ALR, DTT oxidation, H2O2 HRP-luminol luminescence. inhibition, % (no concentration beside the values). 290,000 compounds, 3.8% hits;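 active means mean and each replicate at 75% or more; inconclusive means only one of the two met; inactive means neither met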;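 further: stock transfer was 7.5 nL into about 7.5 µL; 0% = neutral wells and 100% = wells with inactivated enzyme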
# Target sequence (P55789 whole entry, looked up): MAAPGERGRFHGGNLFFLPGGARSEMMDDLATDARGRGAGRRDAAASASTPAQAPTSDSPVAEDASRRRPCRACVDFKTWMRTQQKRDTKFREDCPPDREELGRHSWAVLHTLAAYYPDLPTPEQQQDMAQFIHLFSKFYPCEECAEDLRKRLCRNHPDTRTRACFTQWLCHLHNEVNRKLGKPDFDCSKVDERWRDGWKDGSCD
# FGF22 binding = binders of recombinant human FGF22 by thermal shift; SYPRO orange fluorescence; percent of sucrose octasulfate shift, DMSO zero; calls only at 9.99 µM; 340,000 compounds, 1.5% hits; Q9HCT0; AID 651658;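 active means melting point raised past a set limit in the mean and every replicate; inconclusive means no clear call; three in four hits are not shown here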
# rRNA inh HTS OD600 = also measured in rRNA inh HTS; calls as there; OD600 change, %; measured here: OD600 growth;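 optical density of the mix in the first replicate; 0 = DMSO median and -100 = no signal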
# rRNA inh HTS RFP = second read-out of rRNA inh HTS, no call of its own (marks repeat the call); RFP signal change, %; measured here: RFP humanized mutant strains;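 first replicate; 0 = DMSO median and -100 = no signal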
# Numbers without * were called inactive; i = inactive; ? = inconclusive; nt = no result given. Not all compounds are listed (hit frequency here may not be typical).
No.	smiles	rRNA inh HTS RFP	RanGTP-Imp inh	FGF22 binding	AF4-AF9 inh	rRNA inh HTS
1	Cc1ccc(NS(=O)(=O)c2cc3c4c(cccc4c2)C(=O)NC3=O)cc1C	4.8	3.5	i	1.6	-8.7
2	O=C(Cn1c(=O)oc2ccccc21)N1CCOCC1	1.8	-2.3	i	-14.5	4.6
3	O=C(C1CCCN(S(=O)(=O)c2ccc(Cl)cc2)C1)N(Cc1cccs1)C1CC1 (centres undefined)	nt	4.9	nt	nt	nt
4	CC(C)(C)NC(=O)CSC(=Nc1ccccc1F)NC#N	nt	6.5	nt	nt	nt
5	O=C(CNC(=O)c1ccc(Cl)cc1Cl)OCCOc1ccccc1F	3.5	nt	i	0.8	-13.3
6	Cc1ccc(NC(=O)[C@H](CC(C)C)NC(=O)[C@@H]2Cc3ccccc3CN2)cc1	1.0	-1.2	i	2.2	1.8
7	CC(C)C(=O)Nc1nc2cc3c(cc2s1)OCO3	-12.9	4.9	i	5.5	1.8
8	CCOC(=O)C1(CCCc2ccccc2)CCN(C(=O)c2cnn(CC)c2)CC1	-8.0	1.5	i	-0.5	-24.2
9	O=C(NCC(=O)N1CCN(c2ccccc2F)CC1)c1ccco1	-3.0	-0.2	i	-2.4	3.1
10	O=C(c1cc(COc2c(F)cccc2F)on1)N(Cc1ccccc1)CC1CC1	-0.6	4.6	i	-5.1	-6.1
11	CN(C(=O)c1ccc(Cl)cc1)C1=CCCCC1CCC#N (centres undefined)	nt	6.9	nt	nt	nt
12	COC(=O)Cc1c(C)c2ccc(OCC(=O)N3CCCC3)c(C)c2oc1=O	-0.1	nt	i	-0.5	0.4

No.	ALR H2O2 inh	Calb FLC	T cruzi repl	rRNA inh HTS OD600	Beta cell apopt
1	nt	-6.3	15.7	-13.2	13.5
2	1.1	-5.0	-14.3	2.6	3.0
3	3.3	-3.8	23.5	nt	15.4
4	98.7*	12.9	-0.1	nt	-3.1
5	nt	nt	nt	-5.9	-3.2
6	-1.4	-2.4	-6.7	13.5	-5.6
7	34.2	-4.8	34.3	-10.6	3.8
8	0.6	0.7	nt	-30.0	-1.4
9	nt	-3.5	-11.6	5.9	nt
10	-0.7	0.3	25.1	-12.1	4.2
11	-6.9	2.2	-8.6	nt	-5.8
12	-7.6	nt	-15.8	4.5	-0.2

# An excerpt from above, reduced to RanGTP-Imp inh, FGF22 binding and AF4-AF9 inh:
nr	compound	RanGTP-Imp inh	FGF22 binding	AF4-AF9 inh
11	CN(C(=O)c1ccc(Cl)cc1)C1=CCCCC1CCC#N (centres undefined)	6.9	nt	nt
12	COC(=O)Cc1c(C)c2ccc(OCC(=O)N3CCCC3)c(C)c2oc1=O	nt	i	-0.5

# 6 entries from above, sorted by their value in ALR H2O2 inh, rising.
cpd	Structure	rRNA inh HTS RFP	RanGTP-Imp inh	FGF22 binding	AF4-AF9 inh	rRNA inh HTS	ALR H2O2 inh	rRNA inh HTS OD600
11	CN(C(=O)c1ccc(Cl)cc1)C1=CCCCC1CCC#N (centres undefined)	nt	6.9	nt	nt	nt	-6.9	nt
6	Cc1ccc(NC(=O)[C@H](CC(C)C)NC(=O)[C@@H]2Cc3ccccc3CN2)cc1	1.0	-1.2	i	2.2	1.8	-1.4	13.5
10	O=C(c1cc(COc2c(F)cccc2F)on1)N(Cc1ccccc1)CC1CC1	-0.6	4.6	i	-5.1	-6.1	-0.7	-12.1
8	CCOC(=O)C1(CCCc2ccccc2)CCN(C(=O)c2cnn(CC)c2)CC1	-8.0	1.5	i	-0.5	-24.2	0.6	-30.0
3	O=C(C1CCCN(S(=O)(=O)c2ccc(Cl)cc2)C1)N(Cc1cccs1)C1CC1 (centres undefined)	nt	4.9	nt	nt	nt	3.3	nt
7	CC(C)C(=O)Nc1nc2cc3c(cc2s1)OCO3	-12.9	4.9	i	5.5	1.8	34.2	-10.6

# Single values from the results shown:
# rRNA inh HTS, compound 9 reads 3.1
# T cruzi repl, compound 6 reads -6.7

# Other structures follow.
No.	smiles	rRNA inh HTS RFP	RanGTP-Imp inh	FGF22 binding	AF4-AF9 inh	rRNA inh HTS
13	COc1ccc(OC)c(NC(=S)NCCC(c2ccccc2)c2ccccc2)c1	-7.6	-6.2	nt	nt	1.2
14	NC(=O)C1CCN(C(=S)NCCc2ccccc2)CC1	0.2	-0.2	i	-3.1	-7.0
15	OC(COc1ccccc1F)CN1CCC(Cc2ccccc2)CC1 (centres undefined)	-3.7	-0.6	i	-7.7	-11.0
16	COCCCNC(=O)C1CCC(=O)N1Cc1ccccc1Cl (centres undefined)	nt	-2.4	nt	nt	nt
17	O=C(CSc1nnc(NC(=O)c2ccccc2[N+](=O)[O-])s1)NCc1ccco1	1.4	nt	i	0.1	-3.4
18	CCCN(CCC)C(=O)CC(c1ccccc1)c1cc(Br)ccc1O (centres undefined)	nt	nt	nt	nt	nt
19	CC(=O)c1ccc(NC(=O)CCCC(=O)c2ccccc2)cc1	-6.8	?	i	0.6	7.0
20	FC(F)(F)c1cccc(CNC(=S)Nc2ccccc2)c1	nt	2.3	nt	nt	nt
21	COc1ccc(N(CCOc2ccccc2)S(=O)(=O)c2ccccc2)cc1	1.7	nt	i	-2.4	-4.4
22	CCn1cc(S(=O)(=O)Nc2cc(C)ccc2F)cn1	1.6	3.1	i	-2.8	5.6
23	COc1ccc(-c2csc(N3CCC(c4ccccc4)CC3)n2)cc1	1.4	-0.8	i	-2.0	3.2
24	CC1(C)Cc2c(C#N)c(N)n(-c3ccccc3)c(=O)c2CO1	nt	-4.6	nt	nt	nt

No.	ALR H2O2 inh	Calb FLC	T cruzi repl	rRNA inh HTS OD600	Beta cell apopt
13	-4.8	-0.2	34.7	-3.5	-11.6
14	-36.7	1.2	-11.7	2.0	-3.5
15	-1.4	-21.7	16.4	-19.9	nt
16	1.4	-4.3	-5.2	nt	-0.8
17	-1.7	nt	7.1	-7.3	-8.2
18	3.0	5.4	-10.4	nt	11.6
19	6.9	0.8	-8.8	2.6	-7.9
20	-16.1	-11.2	20.7	nt	1.6
21	-2.7	nt	nt	-10.2	-1.9
22	-3.9	-14.5	-12.5	1.7	nt
23	-4.0	-14.5	-0.7	5.8	-11.4
24	-4.4	3.4	-8.4	nt	-6.4

# (continued)
No.	smiles	rRNA inh HTS RFP	RanGTP-Imp inh	FGF22 binding	AF4-AF9 inh	rRNA inh HTS
25	CN(C)c1nnnn1-c1ccccc1Oc1ncc(C(F)(F)F)cc1Cl	3.0	-4.3	i	-0.6	-5.2
26	O=C(CSc1nnc(Cc2ccccc2)n1-c1cccc(Cl)c1)NNC(=O)Cc1ccccc1	nt	3.1	nt	nt	nt
27	CN(C(=O)c1ccccc1)c1nccnc1C#N	-2.6	-1.0	i	-5.2	10.1
28	CCOC(=O)Cc1c(C)c2c(C)[nH]nc2oc1=O	nt	0.4	nt	nt	nt
29	CC(=O)c1ccc(S(=O)(=O)N2CCCC(N(C)CCc3ccccc3)C2)cc1 (centres undefined)	-1.0	0.3	i	3.9	5.4
30	CCOc1cccc(C(=O)NC(=S)Nc2ccccc2)c1	nt	2.2	i	3.0	nt
31	CCC(C)(C)NC(=O)CN(C(=O)c1snc(C(N)=O)c1N)c1ccc2c(c1)OCCO2	-2.6	-6.1	nt	nt	0.4
32	CCN(CC)c1ccc(NC(=O)CCCOc2cccc(C)c2)cc1	-1.5	1.6	i	3.5	1.3

No.	ALR H2O2 inh	Calb FLC	T cruzi repl	rRNA inh HTS OD600	Beta cell apopt
25	5.5	12.4	0.7	-7.0	-9.7
26	-9.4	-5.5	10.2	nt	1.8
27	-4.1	0.3	0.1	6.9	nt
28	-16.1	nt	-6.5	nt	-1.0
29	nt	1.0	19.3	5.0	-1.9
30	nt	-50.5	-12.3	nt	0.7
31	0.6	7.0	-14.0	9.9	-6.1
32	nt	-5.9	8.8	17.1	nt
